Source: PubChem (ICCB-Longwood Screening Facility, Harvard Medical School)
Choline anaer gr: growth inhibitors of anaerobic choline-fed gram-negatives, minimal medium, absorbance; Gram-negative bacterium anaerobic choline minimal medium; stronger effect = lower value; many inactives read as strong as hits in the columns shown; calls only; actives 0.2% (n = 55,000);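 active = growth z-score on choline under -2 at 7 or 20 h with little or no fall on glycerol, limits in tiers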;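 note: stock transfer was 300 nL into about 50 µL; the organism is E. coli; final concentration not given here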
Choline anaer gr early: recorded beside Choline anaer gr, whose call it bears; z-score; measured here: choline growth z-score, timepoint 1;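 score of optical density at 7 h as mean of two plates; lower means less growth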
Active calls of the source: *; i = inactive; & = joins results of further samples.

Results follow in this order: Choline anaer gr	Choline anaer gr early
> O=C(NC1CCCc2ccccc21)C1CCN(c2nc3ccccc3nc2C(F)(F)F)CC1 (stereo unspecified)
→ i	1.5
> C=CCN1CC(O)=C(c2nc3ccc(C)cc3[nH]2)C1=N
→ i	-1.8
> CC1(C)CC(=O)c2cc(C(=O)Nc3ccc(O)cc3)c(=O)[nH]c2C1
→ i	0.23
> CCC(=O)N1CCc2cc(S(=O)(=O)CCC(=O)NCCc3ccc(S(N)(=O)=O)cc3)ccc21
→ i	0.3
> O=C(O)c1nnn(Cc2ccccc2Cl)c1C(=O)O
→ i	0.84
> Fc1ccc(-c2nn3c(-c4cnccn4)nnc3s2)cc1Br
→ i	-1.2
> O=c1ccc(-c2ccc3c(c2)OCO3)nn1CCc1nc(-c2ccc(Cl)cc2)no1
→ i	0.74
> CC(=O)Nc1c(C)nn(-c2ccccc2)c1N1CCC(C(=O)NCc2ccccn2)CC1
→ i	-0.98
> CCSc1nc2nc3c(cn2n1)C(=O)CCC3
→ i	-1.7
> O=C(NCCC1=CCCCC1)c1nc(Nc2ccc(F)cc2)c2ccccc2n1
→ i	0.98
> O=C(NCCC1=CCCCC1)C1CCN(C(=O)c2cccn2-c2cccnc2)CC1
→ i	-0.65
> O=S(=O)(NC1CCCC1)c1ccc(-c2cnc(C3CC3)o2)s1
→ i	-0.61
> Clc1cccc(-c2noc3ncnc(NCc4ccc5c(c4)OCO5)c23)c1
→ i	1.4
> CC(C)CC(=O)Nc1cnc(N2CCNCC2)c(C(=O)N(CC(C)C)CC(C)C)c1
→ i	1.1
> CCOC(=O)c1cc(=O)c2ccccc2[nH]1
→ i	-0.99
> O=C(Cn1nc2n(CCc3ccccc3)c(=O)c3ccccc3n2c1=O)c1ccccc1
→ i	0.48
> COc1ccc(NC(=O)CSc2nc(N3CCCCC3)nc3ccccc23)cc1
→ i	0.32
> Cc1onc(-c2ccccc2Cl)c1C(=O)Nc1cc2c(cc1N1CCCCC1)n(C)c(=O)n2C
→ i	-0.89
> COCCNC(=O)N1CCC2(C1)C(=O)Nc1ccccc12 (stereo unspecified)
→ i	-1.7
> CCNC1CN(CCCOC)S(=O)(=O)c2sc(S(N)(=O)=O)cc21 (stereo unspecified)
→ i	0.47
> CC(=O)Nc1cc(Cl)ccc1OCc1cc(=O)n2c(C)csc2n1
→ i	-0.03
> COc1ccc(C2C3=C(CC(c4ccc(Cl)cc4)CC3=O)Nc3onc(C)c32)cc1 (stereo unspecified)
→ i	-0.19
> Cc1c(C(=O)O)cnn1-c1ccccc1
→ i	-0.87
> COCc1nc2c([nH]1)c(=O)n(C)c(=O)n2CC(C)C
→ i	0.7&0.44&0.17
> COc1ccc(Nc2ncnc3sc(C(=O)O)c(C)c23)cc1OC
→ i	1.3
> CCC(C(=O)N1CCN(Cc2ccccc2)CC1)N1CCN(Cc2ccc(F)cc2)C(=O)C1=O (stereo unspecified)
→ i	1.1
> Cc1ccc(-c2ccc(N3CCCC(C(=O)NCc4ccc(C(C)C)cc4)C3)nn2)cc1 (stereo unspecified)
→ i	-0.38
> NC(=O)C1CCN(c2cc(C(=O)O)c3cc(NC(=O)c4ccc(Br)cc4)ccc3n2)CC1
→ i	0.01
> CC1(C(=O)NC2CCCCC2)Cn2c(nc3ccccc32)C(=O)N1Cc1ccccc1 (stereo unspecified)
→ i	0.47
> Cc1cc(C)c2c(-n3cccc3)nn(Cc3ccc(C(=O)NC4CCCC4)cc3)c2n1
→ i	0.87
> O=C(Nc1ccc(N2CCOCC2)cc1)C1CCN(c2ncc(-c3ccc(F)cc3)cn2)CC1
→ i	-0.72
> Cc1ccc(-c2nc3ccccc3c3nnc(SCC(N)=O)n23)cc1
→ i	1.7
> COc1cc(OC)c(NS(=O)(=O)c2cc3c(cc2C)NC(=O)CO3)cc1Cl
→ i	1.4
> COc1ccc(-c2c(C)nn3c2NC(=O)CCC3=O)cc1S(=O)(=O)N1CCOCC1
→ i	-0.07
> COc1cc2[nH]c3c(SCC(=O)N4CCc5ccccc5C4)ncnc3c2cc1OC
→ i	0.44
> Cc1ccc(NC(=O)C2CCCN(Cc3noc(-c4ccc(C)cc4)n3)C2)cc1 (stereo unspecified)
→ i	-1.4
> COc1ccccc1-c1noc2ncnc(NC3CC3)c12
→ i	0.17
> CC1Oc2ccc(S(=O)(=O)N3CCN(C(=O)Nc4ccccc4)CC3)cc2NC1=O (stereo unspecified)
→ i	-0.46
> CCC(=O)N1CCc2cc(N3CC(C(=O)N(CC)CC)CC3=O)ccc21 (stereo unspecified)
→ i	-2.3
> O=C(NCc1cccnc1)c1cc2c(Cl)ccc3c2n1CCO3
→ i	2
> CC(C)c1cc(C2CCCN2Cc2cc(F)ccc2F)no1 (stereo unspecified)
→ i	-1
> O=C(NCc1ccc2c(c1)OCO2)C1c2ccccc2Oc2ccccc21
→ i	1.5
> O=C(Nc1ccccc1SCc1nnc(-c2ccccc2)o1)c1ccc(F)cc1
→ i	0.7
> O=C(C1Nc2ccccc2S(=O)(=O)N1)N1CCN(C(c2ccccc2)c2ccccc2)CC1 (stereo unspecified)
→ i	-0.17
> O=C(CN1C(=O)C2CCCN2C(=O)c2cc(F)ccc21)NCCCN1CCCCC1 (stereo unspecified)
→ i	0.7
> Cc1ccc(NC(=O)N2CCOc3ccccc32)cc1
→ i	-2.9
> COCCNC(=O)NCCc1nc2cccnc2n1-c1ccccc1
→ i	0.98
> COc1cccc(-c2nc(COc3ccccc3-c3nnc(-c4ccccc4)o3)c(C)o2)c1OC
→ i	1.3
> CCCS(=O)(=O)N1CCCN(C2=NS(=O)(=O)C(c3ccc(CC)cc3)=C2C)CC1
→ i	0.95
> O=C(NCCN1CCCC1)C1CCN(c2ccc(Cl)cc2)C1=O (stereo unspecified)
→ i	0.81
> O=C(c1cc(C2CC2)on1)N1CCCC1c1ccccc1Cl (stereo unspecified)
→ i	-0.38
> CN(C)C(=O)c1cnn2c3c(cnc12)CCCCCC3
→ i	-0.25
> Cc1cc(C)n(-c2nc3ccccc3nc2N2CCN(S(=O)(=O)c3ccc(N4CCCC4=O)cc3)CC2)n1
→ i	0.53
> CCc1ccccc1NS(=O)(=O)c1cc(CN2C(=O)C3CCCCC3C2=O)ccc1C (stereo unspecified)
→ i	-1.2
> O=C(C1CCCN(c2cnc3nccnc3c2)C1)N1CCC(N2CCCCC2)CC1 (stereo unspecified)
→ i	-1.9
> COc1ccc(NC(=O)C2Nc3cc(F)ccc3S(=O)(=O)N2)cc1OC (stereo unspecified)
→ i	-0.5
> COc1ccccc1C(=O)Nc1cc2c(cc1SC1CCCCC1)n(C)c(=O)n2C
→ i	-0.76
> O=C(COc1ccccc1-c1nc(-c2ccccc2Cl)no1)NC1CCCC1
→ i	-0.46
> COc1ccc(NC(=O)c2cc3c(=O)oc4ccccc4c3n2C)c(OC)c1
→ i	-0.11
> CCN1CCN(c2ccc3nnc(C(C)C)n3n2)CC1
→ i	-0.94

4 compounds from above, arranged by formula weight, lowest first:
Results follow in this order: Choline anaer gr	Choline anaer gr early
> O=C(c1cc(C2CC2)on1)N1CCCC1c1ccccc1Cl (stereo unspecified)
→ i	-0.38
> O=S(=O)(NC1CCCC1)c1ccc(-c2cnc(C3CC3)o2)s1
→ i	-0.61
> CC(C)CC(=O)Nc1cnc(N2CCNCC2)c(C(=O)N(CC(C)C)CC(C)C)c1
→ i	1.1
> COc1ccc(-c2c(C)nn3c2NC(=O)CCC3=O)cc1S(=O)(=O)N1CCOCC1
→ i	-0.07

Returning to the listing, starting 3 compounds before the break.
Results follow in this order: Choline anaer gr	Choline anaer gr early
> O=C(COc1ccccc1-c1nc(-c2ccccc2Cl)no1)NC1CCCC1
→ i	-0.46
> COc1ccc(NC(=O)c2cc3c(=O)oc4ccccc4c3n2C)c(OC)c1
→ i	-0.11
> CCN1CCN(c2ccc3nnc(C(C)C)n3n2)CC1
→ i	-0.94
> CC1=NOC(C)(CNC(=O)NC2CCCCC2)C1 (stereo unspecified)
→ i	0.07
> COC(=O)c1ccc(NC(=O)N2CCN(Cc3cc(=O)n4nc(-c5ccc(F)cc5)sc4n3)CC2)cc1
→ i	-0.91
> Cc1cc(C)c(/C=C/c2onc(C)c2S(=O)(=O)N2CCC(C(=O)N3CCc4ccccc4C3)CC2)c(C)c1
→ i	-0.48
> CCN1CCN(c2cc(C)nc3nc(CN4CCN(CC(C)C)CC4)nn23)CC1
→ i	0.5
> CCn1c(Cn2nc(C)cc2C)nc2cc(NC(=O)c3ccc(OC)cc3)ccc21
→ i	0.44
> Cc1ccc(C)c(NS(=O)(=O)c2c(C)sc(C)c2-c2n[nH]c(C)c2C)c1
→ i	0.74
> CCC1c2ccc(C)n2CCN1C(=O)Nc1cc(C)ccc1C (stereo unspecified)
→ i	-0.5
> COc1cccc(CN2C(=O)c3ccccc3Sc3ccc(C(=O)NCCc4ccccc4)cc32)c1
→ i	0.66
> COc1ccc(NC(=O)N2CCC3(CC2)Nc2cc(OC)ccc2-n2cccc23)cc1
→ i	-0.41
> Cc1cc(N2CCN(C)CC2)nc2ccc(NC(=O)NCCc3ccccc3)cc12
→ i	0.11
> CCn1c(=O)c(-c2noc(C(=O)N3CCN(C4CCCCC4)CC3)n2)nn(-c2ccc(F)cc2)c1=O
→ i	-0.06
> Cc1nn(-c2nc3ccccc3[nH]2)c2c1C(c1cc(F)cc(F)c1)CC(=O)N2 (stereo unspecified)
→ i	0.27
> O=C1C(O)=C(c2ccccc2)C(c2ccc(Br)cc2)N1CCc1ccccc1 (stereo unspecified)
→ i	0.96
> COc1ccc(-c2cc(Nc3c(C)n(C)n(-c4ccccc4)c3=O)nc(C)n2)cc1
→ i	-1.9
> O=C(NCCc1nc2ccccc2n1Cc1ccccc1)C1CCCCC1
→ i	0.21
> NC(N)=NC(N)=NCCc1ccccc1
→ i	0.48
> Cc1cc(C(=O)N2CCN(C)CC2)no1
→ i	-1.4
> Cc1nc(CCNC(=O)[C@H]2CCCN2S(=O)(=O)c2cnn(C(F)F)c2C)cs1
→ i	0.02
> CCOC(=O)c1ccc(NC(=NCc2ccncc2)NC(=O)c2ccc(Br)cc2)cc1
→ i	0.42
> Cc1ccc(CNS(=O)(=O)c2ccc(-c3nnc(C4CC4)o3)s2)o1
→ i	0.14
> COc1ccc(NC(=O)Nc2ccccc2SCc2cc(=O)n3oc(C)cc3n2)c(OC)c1
→ i	-0.43
> COC(=O)c1ccc(CSc2n[nH]c(=O)c3cc(-c4ccco4)nn23)o1
→ i	0.59
> CCn1nc(C)c2c1c(=O)n(Cc1ccccc1)c(=O)n2Cc1ccccc1F
→ i	2.5
> CC(=O)N1CCCN(C(=O)NC(C)(C)C)CC1
→ i	0.89
> C=CCn1nc(SCCC)n2c(=O)c3c(nc12)-c1ccccc1CC3(C)C
→ i	0.01
> O=C(Nc1ccc(S(=O)(=O)NCCc2ccccc2)cc1)C1c2ccccc2Oc2ccccc21
→ i	1.4
> CCC(C)NC(=O)N1CCN(c2cc(-c3ccc(C)cc3)ncn2)CC1 (stereo unspecified)
→ i	0.14
> CCCC(=O)Nc1nc(-c2ccc3c(c2)NC(=O)CO3)cs1
→ i	-0.2
> O=C(c1ccccc1Cl)N1CCN(CCc2ccccn2)CC1
→ i	0.58
> CCN(CCCNC(=O)CN1CCN(Cc2ccc(F)cc2Cl)C1=O)c1cccc(C)c1
→ i	-0.27
> Cc1nc(-c2cccc(-c3noc(-c4ccsc4)n3)c2)cs1
→ i	2
> CC(C)[C@H]1c2ccc(F)cc2CC[C@@]1(CCN(C)CCCc1nc2ccccc2[nH]1)OC(=O)C1CC1
→ i	-2.9
> CCOCCCNC(=O)c1ccc(-c2ccc(Oc3ccccc3OC)nn2)cc1
→ i	0.41
> Cc1nnc2sc(SCC(N)=O)nn2c1=O
→ i	-0.12
> Cc1ccccc1C(=O)NCCOc1ccc(-c2ccccc2)nn1
→ i	-0.68
> Cc1nc2nc(Cc3cccc(F)c3)nn2c(N2CCN(Cc3ccc4c(c3)OCO4)CC2)c1C
→ i	-0.38
> CC1CCN(S(=O)(=O)c2ccc(-c3ccno3)s2)CC1
→ i	1.1
> CC1=C(C(=O)NC(C)C)SCCO1
→ i	-0.24
> C=Cc1ccc(COC(=O)c2nnn(-c3ccc(Br)cc3)c2C)cc1
→ i	1.6
> COc1ccc(Cl)cc1C(=O)NCCc1ccc(S(=O)(=O)NC(=O)NC2CCCCC2)cc1
→ i	0.7&0.59&0.05&0.62&0.55&0.68&0.66
> CCOC(=O)c1nc2cc(C)c(C)cc2nc1NC(C)c1ccccc1 (stereo unspecified)
→ i	-0.02
> Cc1nn(C(C)C(=O)NCc2ccccc2Cl)c(=O)c2c1sc1ccccc12 (stereo unspecified)
→ i	-0.31
> CCc1cc2c(cc3n2CC(C)(C(=O)NC2CCCCC2)N(CC2CCCO2)C3=O)s1 (stereo unspecified)
→ i	-0.44
> CCCNS(=O)(=O)c1cc(-c2cc(C(F)(F)F)on2)sc1C
→ i	0.88
> Cc1ccc(NC(c2ccccn2)c2ccc3cccnc3c2O)c(C)c1 (stereo unspecified)
→ i	1.4
> COc1ccc(-c2cc(=O)[nH]c(SCc3nc(-c4ccccc4)oc3C)n2)cc1
→ i	-0.66
> O=C(Nc1ccc2c(c1)OCO2)N1CCC(n2c(C(F)(F)F)nc3cccnc32)CC1
→ i	0.82
> Cc1nnc(Nc2ccc(Br)cc2)[nH]c1=O
→ i	0.4
> CCN(Cc1ccccc1)c1ccc(NC(=O)c2ccc(F)cc2)cc1C(=O)O
→ i	0.28
> Cn1c(=O)c2nc(SCCC(=O)NCc3cc(F)cc(F)c3)n(C)c2n(C)c1=O
→ i	0.3
> Cc1cc(C)cc(NC(=O)N2CCCC2c2cc(C)no2)c1 (stereo unspecified)
→ i	-0.78
> Cc1ccc(C)c(CN2CCC(CNC(=O)Nc3ccc(Br)cc3)CC2)c1
→ i	0.11

Not all compounds are listed (hit frequency here may not be typical).
